# Sa RN4220 lethal: S. aureus RN4220 growth inhibition | OD600, 16 h | inhibition, % (concentration not given with the values) | 330,000 compounds, 0.33% hits | AID 1259311;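 active = z-score of -3 or lower and OD600 up to 0.18 on both plates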;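 also: plate controls were untreated cells for no effect and reference antibiotic for full effect; stock transfer was 100 nL into about 80 µL; one replicate is shown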
# Bead autofluor: compound fluorescence in toxin protease inhibitor counterscreen; compound autofluorescence counterscreen, microsphere flow cytometry; active compounds read high; fluorescence intensity (concentration not given with the values); 360,000 compounds, 3.1% hits;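 active = at least 3 SD above the mean of all compounds, about 16000 in these data; inconclusive = too few beads counted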;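 also: 100 nL of 1 mM stock went into each well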
# Mtb hypoxia rep: reduces hypoxia-regulated biosensor signal in M. tuberculosis; M. tuberculosis hypoxia-regulated fluorescent reporter, fluorescence; fluorescence inhibition, % (test concentration not listed); 300,000 compounds, 0.1% hits; AID 1159583;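 active = 35 to 45% if threefold the growth effect, above 45% if 1.5-fold the growth effect; inactive = the rest, general growth blockers included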;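 also: wells of about 50 µL received 100 nL stock; 0% = vehicle wells and 100% = reference inhibitor wells; whole bacteria with a GFP reporter of the hypoxia response; strong numbers were not always called active; many hits fall short of the cut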
# PrP UTR inh: inhibition of PrP 5' UTR reporter expression | AID 488862 | inhibition, % (concentration not given with the values) | 340,000 compounds, 0.35% hits | cell-based PrP 5' UTR mRNA reporter, plate reader;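 active = every replicate at 50% or more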;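 also: 0 = median of the neutral control wells; tested in H4 reporter cells; numbers are from one replicate; inactives centre near -14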
# Sa ugtP lethal: kills S. aureus RN4220 lacking UgtP; S. aureus RN4220 ugtP deletion, OD600 growth, 16 h; some inactives read as strong as hits; growth inhibition, % (concentration not given with the values); 330,000 compounds, 0.54% hits; AID 1259309;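 active = z-score under -3 and OD600 up to 0.15 on both plates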;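 also: plate controls were untreated wells for no effect and antibiotic for full effect; wells of about 80 µL received 100 nL stock; the first replicate is given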
# BJeLR lethal: kills HRASV12-expressing BJeLR cells; BJeLR (HRASV12) viability, CellTiter-Glo ATP luminescence, 48 h; reference of the scale not given here; inhibition, % (concentration not given with the values); AID 1554; 300,000 compounds, 0.17% hits;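 active = replicate mean above 50%; inconclusive = above 50% but judged a plate artefact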;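 also: 50 nL library stock added to about 25 µL; numbers are from one replicate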
# Mtb hypoxia rep growth: also measured in Mtb hypoxia rep; calls as there; growth inhibition, %; measured here: M. tuberculosis growth (absorbance);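 0% = vehicle and 100% = reference antibiotic; read after six days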
# Numbers without * were called inactive; ? = inconclusive; . = no result given; & = joins results of further samples. Compounds were not picked by outcome. Share with any hit: about 4%.
no.	molecule	Sa RN4220 lethal	Bead autofluor	Mtb hypoxia rep	Mtb hypoxia rep growth	PrP UTR inh	Sa ugtP lethal	BJeLR lethal
1	CC(=O)N1N=C(c2ccccc2O)OC1(C)CC(=O)Nc1ccccc1 (stereo not drawn)	7.8	2497	4	2	-9	0	-1
2	COC(=O)C1CN(C(=O)C(C)Oc2ccc(C(C)C)cc2)c2ccccc2O1 (stereo not drawn)	1.4	3047	9	5	-6	13	-2
3	O=C(NN=Cc1ccco1)C1CC1c1ccccc1 (stereo not drawn)	-2.2	.	7	-1	.	-1	.
4	CCOC(=O)C1C(c2ccccc2)N(C)OC1(O)C(F)(F)F (stereo not drawn)	3.6	4706	4	2	-9	0	0
5	CN(C)CCCNC(=O)c1ccc(-c2cc(O)c3ncccc3c2)cc1	-3.0	2334	20	8	-12	3	.
6	Nc1n[nH]c(-c2ccc([N+](=O)[O-])cc2[N+](=O)[O-])n1	0.0	3751	0	2	-19	20	0
7	O=C(COC(=O)c1ccccc1OC(F)F)Nc1ccc(N2CCCCC2)cc1	-1.4	4221	1	-2	-8	4	.
8	COc1ccc(S(=O)(=O)N2Cc3ccccc3CC2C(=O)N2CCOCC2)cc1 (stereo not drawn)	4.7	4567	18	4	-14	5	-6
9	O=c1c2ccccc2oc2cc(Br)ccc12	9.3	3899	17	8	-38	12	.
10	CCNC(=S)NN=C(C)c1ccco1	-1.2	.	0	8	.	-13	.
11	COc1ccc2nc(SCC(=O)Nc3ccc4[nH]c(=O)[nH]c4c3)[nH]c2c1	0.0	5657	7	8	-12	7	.
12	CN1CCC(N(C)c2ccc(C(N)=O)cc2[N+](=O)[O-])CC1	2.7	3457	12	0	-22	-2	-12
13	O=c1c2c3c(sc2ncn1/N=C/c1ccc([N+](=O)[O-])o1)CCCC3	.	2749	.	.	-19	.	3
14	CCCCOCCCNC(=O)C1c2ccccc2Oc2ccccc21	-2.1	3296	7	5	-6	3	-11
15	CCN(CC)S(=O)(=O)c1ccc(N2CC(C(=O)NCCc3c[nH]c4ccccc34)CC2=O)cc1 (stereo not drawn)	2.1	?	5	0	-6	-2	.
16	CC(=O)n1cc(/C=N/NC(=O)c2cccc(O)c2)c2ccccc21	.	3986	.	.	-6	.	-2
17	COc1cc(OC)c(C(=O)OCC(=O)Nc2ccccc2Cl)cc1OC	6.6	2944	3	-4	-18	6	1
18	CSCc1cc(N2CCOCC2)nc(SCc2ccc(Cl)cc2Cl)n1	-5.7	11875	9	12	-43	93*	-5
19	Cn1c(-c2sc3cc(C(F)(F)F)cnc3c2-c2ccccc2)n[nH]c1=S	-5.2	2738	.	.	-12	7	1
20	c1cc(-c2nnc3sc(C4CCCCC4)nn23)ccn1	0.1	6036	-4	1	9	0	-4
21	COc1ccccc1NS(=O)(=O)c1cc(NC(=O)Cn2cnc3c2c(=O)n(C)c(=O)n3C)ccc1C	4.5	2481	1	-1	-4	4	-5
22	CCOc1cc(/C=N\NC(=O)OC(C)(C)C)ccc1OC(=O)c1ccco1	.	4406	.	.	-20	.	-4
23	CN1CCc2c(sc3c2C(=O)NC(c2ccccc2)N3)C1 (stereo not drawn)	2.0	6507	15	3	-36	9	3
24	O=C(O)c1ccc(-[n+]2c(-c3ccccc3)cc(-c3ccccc3)cc2-c2ccccc2)cc1	-1.4	4351	5	6	-8	-3	-5
25	CNc1nc2c(c(=O)[nH]c(=O)n2C)n1CCCc1ccccc1	5.2	3383	3	4	-10	19	3

# (cont.)
no.	molecule	Sa RN4220 lethal	Bead autofluor	Mtb hypoxia rep	Mtb hypoxia rep growth	PrP UTR inh	Sa ugtP lethal	BJeLR lethal
26	CC1(C)Cc2c(sc3c2c2ncnn2c2nnc(SCC(=O)NCc4ccco4)n32)CO1	-0.4	2411	.	.	-20	16	0
27	NC(=O)c1cc(NC(=O)COC(=O)CCCN2C(=O)c3cccc4cccc(c34)C2=O)cc(C(N)=O)c1	5.6	2927	10	3	-22	10	.
28	CCC1CCc2sc(C(=O)NCC(c3ccc(OC)cc3)N3CCCC3)cc2C1 (stereo not drawn)	.	?	.	.	17	.	13
29	CC(C)CC1Nc2ncnc(N3CCN(c4ccccc4)CC3)c2N(Cc2ccc(Br)cc2)C1=O (stereo not drawn)	-0.2	4408	-11	10	-2	-29	-6
30	O=C(/C=C/Nc1ccc(Br)cc1F)c1ccccc1	2.9	2450	-12	-4	39	3	30
31	Cc1ccc(C(=O)N(CC(=O)NC2CCCC2)c2cccc(F)c2)s1	-0.8	2930	-10	-9	6	-3	-1
32	Cc1nnsc1S(=O)c1ccc(F)cc1 (stereo not drawn)	-1.9	4049	8	4	-16	7	6
33	COCCOC(=O)c1c(C)oc2ccc(OCc3ccccc3)cc12	1.1	1911	2	-7	-3	32	1
34	CC(C)C(C(=O)NCC1CCCO1)N(CC1CCCO1)C(=O)CNS(=O)(=O)c1ccccc1 (stereo not drawn)	0.3	4281	5	7	-11	6	-1
35	CCN(CC)S(=O)(=O)c1ccc2c(c1)oc(=O)n2CC(=O)N(C)C1CCCCC1	1.7	4262	-5	-4	2	-5	7
36	O=C(NC1CC1)C1=CC(c2coc3ccccc3c2=O)CC(OCCCCO)O1 (stereo not drawn)	5.1&3.0	.	21&0	8&13	.	4&-10	.
37	Cc1ccc(Sc2cc(C(=O)NCCCN(C)C)c3ccccc3n2)cc1	0.7	3475	7	10	-3	16	9
38	Cn1c(SCc2nn[nH]n2)nc2c1c(=O)n(Cc1ccccc1Cl)c(=O)n2C	7.8	11742	11	6	-22	6	-5
39	COC(=O)c1cc(NC(=O)C2CC2)cc(C(=O)OC)c1	2.2	9299	6	3	-14	3	2
40	COc1ccc(NC(=O)CSc2nnc(-c3cc(C)[nH]n3)n2N)cc1OC	4.3	4761	15	9	-9	13	1
41	CCOc1ccc(C2OCCC(C)O2)cc1OC (stereo not drawn)	2.1	2721	11	2	3	8	.
42	Cc1ccc(S(=O)(=O)CCC(=O)NCc2ccco2)cc1	-7.4	3771	-1	-2	-28	-1	-3
43	Cc1ccc(CC2CC(=O)N(c3cc(C)on3)C2=O)cc1 (stereo not drawn)	1.6	4318	-10	2	12	-17	-2
44	CCN(CC)S(=O)(=O)c1csc(C(=O)OCC(=O)c2ccccc2)c1	2.2	17304*	3	2	-2	7	-8
45	COc1ccc(CNC(=O)C2CCN(c3cc(C(=O)Nc4cccc(OC)c4)ccn3)CC2)cc1	-0.5	6244	-3	3	-29	-1	1
46	COc1ccc(C2/C(=C(/O)c3ccc4c(c3)CC(C)O4)C(=O)C(=O)N2CCN2CCOCC2)cc1OC (stereo not drawn)	1.8	5926	2	6	-11	3	-7
47	NC(=NOC(=O)COc1ccc([N+](=O)[O-])cc1)c1ccncc1	3.6	.	7	1	.	5	.
48	CCCNC(=O)C(=O)N/N=C/c1cccs1	.	10484	.	.	-20	.	-8
49	O=C(c1ccc(CSc2ccccc2)cc1)N1CCN(c2ccccc2)CC1	.	4579	.	.	-32	.	4
50	Cn1c(C(=O)O)c(CC(=O)NCC2COc3ccccc3O2)c2ccccc21 (stereo not drawn)	9.3	4489	-8	0	-18	0	-4

# (list continues)
no.	molecule	Sa RN4220 lethal	Bead autofluor	Mtb hypoxia rep	Mtb hypoxia rep growth	PrP UTR inh	Sa ugtP lethal	BJeLR lethal
51	O=C(CSc1ccc2c(c1)OCCO2)NCCc1ccc(Cl)cc1Cl	.	2017	.	.	-20	.	3
52	Cc1c(Cl)cccc1NC(=O)c1ccco1	-1.0	3765	11	4	-37	6	-2
53	CCCCN(CC(O)COc1cccc(C)c1)CC(O)COc1cccc(C)c1 (stereo not drawn)	7.9	5203	2	7	0	-12	6
54	CCC(C)(C)C1CCc2[nH]nc(C(=O)NC(C)C)c2C1 (stereo not drawn)	1.3	2844	11	18	-16	2	.
55	CCCCOC(=O)C1C2C=CC3(CN(CCc4ccccc4)C(=O)C13)O2 (stereo not drawn)	-0.2	6353	.	.	-65	10	-3
56	C/C(=N\OCC(=O)NCC(F)(F)F)c1cc2ccccc2o1	.	3788	.	.	-44	.	21
57	O=C(O)CC1SC(N/N=C/c2ccc(Br)cc2)NC1=O (stereo not drawn)	.	4207	.	.	-25	.	14
58	CC(C)CNC(C)C(=O)Nc1ccc(S(N)(=O)=O)cc1 (stereo not drawn)	3.3	4410	7	2	-7	8	-2
59	COc1ccc(OC)c(NC(=O)CSc2nnc(-c3ccco3)n2-c2ccc(C(=O)O)cc2)c1	-0.2	2993	.	.	-7	-3	0
60	COc1ccc(-c2csc(NC(=O)c3ccccc3S(C)(=O)=O)n2)cc1	6.2	3217	5	2	-7	11	6
61	COc1ccc(CCNC(=O)CS(=O)(=O)c2cn(CC(=O)N3CCCC3)c3ccccc23)cc1OC	4.3	4461	-1	2	-7	1	2
62	S=C1NCCC12C(=S)Nc1ccccc12 (stereo not drawn)	0.1	5581	.	.	-22	2	-13
63	O=C(c1cccc(S(=O)(=O)Nc2ccc(Br)cc2)c1)N1CCC1	1.7	6012	-2	0	-2	-3	5
64	CCn1c(C)c(C(C)=O)c(N2CCN(C(c3ccccc3)c3ccccc3)CC2)nc1=S	-3.9	4010	.	.	-28	-6	5
65	Cc1cccc(N2C(=O)c3cccc4c(N(C)CCO)ccc(c34)C2=O)c1	1.1	11358	-17	0	0	-4	-5
66	COc1ccc(C(=S)N2CCN(S(=O)(=O)c3ccccc3)CC2)cc1	2.5	5772	8	0	-17	10	-3
67	CC(C)c1ccc(CNc2c([N+](=O)[O-])c(=O)oc3ccccc23)cc1	1.5	2020	0	5	-28	0	-18
68	O=c1oc2ccc(Cl)cc2cc1-c1nnc(Nc2cccc(C(F)(F)F)c2)s1	9.9	5561	3	1	-23	-6	0

# Nos. 52 to 68 of the list above:
no.	molecule	Sa RN4220 lethal	Bead autofluor	Mtb hypoxia rep	Mtb hypoxia rep growth	PrP UTR inh	Sa ugtP lethal	BJeLR lethal
52	Cc1c(Cl)cccc1NC(=O)c1ccco1	-1.0	3765	11	4	-37	6	-2
53	CCCCN(CC(O)COc1cccc(C)c1)CC(O)COc1cccc(C)c1 (stereo not drawn)	7.9	5203	2	7	0	-12	6
54	CCC(C)(C)C1CCc2[nH]nc(C(=O)NC(C)C)c2C1 (stereo not drawn)	1.3	2844	11	18	-16	2	.
55	CCCCOC(=O)C1C2C=CC3(CN(CCc4ccccc4)C(=O)C13)O2 (stereo not drawn)	-0.2	6353	.	.	-65	10	-3
56	C/C(=N\OCC(=O)NCC(F)(F)F)c1cc2ccccc2o1	.	3788	.	.	-44	.	21
57	O=C(O)CC1SC(N/N=C/c2ccc(Br)cc2)NC1=O (stereo not drawn)	.	4207	.	.	-25	.	14
58	CC(C)CNC(C)C(=O)Nc1ccc(S(N)(=O)=O)cc1 (stereo not drawn)	3.3	4410	7	2	-7	8	-2
59	COc1ccc(OC)c(NC(=O)CSc2nnc(-c3ccco3)n2-c2ccc(C(=O)O)cc2)c1	-0.2	2993	.	.	-7	-3	0
60	COc1ccc(-c2csc(NC(=O)c3ccccc3S(C)(=O)=O)n2)cc1	6.2	3217	5	2	-7	11	6
61	COc1ccc(CCNC(=O)CS(=O)(=O)c2cn(CC(=O)N3CCCC3)c3ccccc23)cc1OC	4.3	4461	-1	2	-7	1	2
62	S=C1NCCC12C(=S)Nc1ccccc12 (stereo not drawn)	0.1	5581	.	.	-22	2	-13
63	O=C(c1cccc(S(=O)(=O)Nc2ccc(Br)cc2)c1)N1CCC1	1.7	6012	-2	0	-2	-3	5
64	CCn1c(C)c(C(C)=O)c(N2CCN(C(c3ccccc3)c3ccccc3)CC2)nc1=S	-3.9	4010	.	.	-28	-6	5
65	Cc1cccc(N2C(=O)c3cccc4c(N(C)CCO)ccc(c34)C2=O)c1	1.1	11358	-17	0	0	-4	-5
66	COc1ccc(C(=S)N2CCN(S(=O)(=O)c3ccccc3)CC2)cc1	2.5	5772	8	0	-17	10	-3
67	CC(C)c1ccc(CNc2c([N+](=O)[O-])c(=O)oc3ccccc23)cc1	1.5	2020	0	5	-28	0	-18
68	O=c1oc2ccc(Cl)cc2cc1-c1nnc(Nc2cccc(C(F)(F)F)c2)s1	9.9	5561	3	1	-23	-6	0

# Records 51 to 52, quoted:
no.	molecule	Sa RN4220 lethal	Bead autofluor	Mtb hypoxia rep	Mtb hypoxia rep growth	PrP UTR inh	Sa ugtP lethal	BJeLR lethal
51	O=C(CSc1ccc2c(c1)OCCO2)NCCc1ccc(Cl)cc1Cl	.	2017	.	.	-20	.	3
52	Cc1c(Cl)cccc1NC(=O)c1ccco1	-1.0	3765	11	4	-37	6	-2

# Assay outcomes: PubChem, several laboratories
